MgrA DNA FP: alters Staphylococcus aureus MgrA binding to DNA; fluorescence polarization; inhibition, %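 (about 10 µg/mL by stock and volumes)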; hit rate 0.13% among 84,000; AID 602314;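 active = above 50% in either of two replicates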;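 also: 0% = protein plus DNA without compound and 100% = DNA alone without protein; higher means less MgrA bound to DNA so lower polarization; one replicate is shown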
S aureus helic: S. aureus DNA helicase inhibition; hit rate 0.05% among 120,000; purified S. aureus helicase, fluorescence unwinding assay; about half of the hits fall short of the stated cut; inhibition, %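 (tested at about 80 µM)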; AID 485395;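 active = both duplicates at 50% or more, or one of them with a favoured structure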;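 also: 0% = mean of negative control wells and 100% = mean of positive control wells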
Numbers without * were called inactive.

Start of the listing, in advance, 2 compounds:
`CCN(CC)c1ccc2cc(C(=O)Nc3cccc(C(F)(F)F)c3)c(=O)oc2c1` gave MgrA DNA FP -1.3.
COC(=O)c1cc2ccc(OC)c(OC)c2c(=O)s1 was read as MgrA DNA FP -1.1 and S aureus helic 10.0.

This part in full, previewed entries included:
`CCN(CC)c1ccc2cc(C(=O)Nc3cccc(C(F)(F)F)c3)c(=O)oc2c1` gave MgrA DNA FP -1.3.
COC(=O)c1cc2ccc(OC)c(OC)c2c(=O)s1 was read as MgrA DNA FP -1.1 and S aureus helic 10.0.
Cc1ccc(CSCCC(=O)N2CCN(c3cccc(C)c3C)CC2)cc1 was read as MgrA DNA FP 0.6 and S aureus helic -21.0.
For Oc1ccccc1CNCC12CC3CC(CC(C3)C1)C2 the results were MgrA DNA FP -1.1 and S aureus helic 19.0.
For CC1Cc2nc(SC/C=C/c3ccccc3)n(C)c(=O)c2S1 (stereo not drawn) the results were MgrA DNA FP -0.3 and S aureus helic 3.0.
Screening O=C(Cc1n[nH]c(=O)c2ccccc12)Nc1ccccc1OC(F)F returned S aureus helic 7.0.
For COC(=O)C1Cc2ccccc2CN1Cn1nc2sc3ccccc3n2c1=S (stereo not drawn) the results were S aureus helic 14.0.
Screening Cc1cc(C(=O)CN2C(=O)NCC(C)C2=O)c(C)n1C (stereo not drawn) returned S aureus helic 22.0.
COC(=O)c1ccccc1NC(=S)Nc1ccccn1 was read as MgrA DNA FP 0.7 and S aureus helic 9.0.
CSC1=N/C(=C\c2ccc(Cl)cc2)C(=O)N1N(C)C was read as S aureus helic -12.0.
`COc1cc2c(cc1OC)C(C(=O)NC1CCCCC1)C(c1cccnc1)N(C)C2=O` (stereo not drawn) gave S aureus helic 23.0.
For O=C(NNc1cc(Cl)ccc1Cl)C1CCCS1 (stereo not drawn) the results were S aureus helic 5.0.
Screening COc1ccc(OC)c(/C=C/C(=O)OC(C)C(=O)Nc2ccc(S(=O)(=O)N3CCOCC3)cc2)c1 (stereo not drawn) returned S aureus helic 5.0.
Cc1cccc(CN2CCN(CC(=O)NCc3ccc4c(c3)OCO4)C2=O)c1 was read as S aureus helic 2.0.
Screening CC(C)C(NC(N)=O)C(=O)NCc1ccc(Cl)cc1Cl (stereo not drawn) returned S aureus helic -14.0.
Screening CCOC(=O)CSc1nnc(NCc2ccccc2)s1 returned S aureus helic 2.0.
For CCS(=O)(=O)c1ccc(O)c(NC(=O)c2ccncc2)c1 the results were S aureus helic -7.0.
`CC1(C)C2CC=C(/C=N/O)C1C2` (stereo not drawn) gave S aureus helic -16.0.
For CCOC(=O)C1CCCN(S(=O)(=O)c2ccc(OC)cc2)C1 (stereo not drawn) the results were MgrA DNA FP 0.4 and S aureus helic 7.0.
`COc1ccc(C(=O)CSc2nnc3n2CCCCC3)cc1` gave S aureus helic 3.0.
For Cn1ncc(C(=O)O/N=C(\c2ccccc2)c2ccccc2N)c1-n1cccc1 the results were S aureus helic -32.0.
For COC(=O)CCS(=O)(=O)c1cccs1 the results were S aureus helic 22.0.
`CCc1ccc(CCC(=O)Nc2ccc(C)c(C)c2)o1` gave MgrA DNA FP -0.8 and S aureus helic -2.0.
For COC(=O)/C=C/c1ccc(SC)cc1 the results were MgrA DNA FP 0.8 and S aureus helic 14.0.
`COc1ccc(-c2nc3scc(CCNC(=O)/C=C/c4ccco4)n3n2)cc1` gave S aureus helic -14.0.
`O=C(O)C1CN=C(Cc2ccccc2)N1` (stereo not drawn) gave S aureus helic 16.0.
For C(C=Cc1ccn[nH]1)=Cc1ccccc1 the results were S aureus helic -4.0.
For CN(CC(=O)NCc1ccccc1)S(=O)(=O)c1cnc[nH]1 the results were S aureus helic 1.0.
`COc1ccc(-c2ccccc2)cc1Br` gave MgrA DNA FP -2.5.
Screening CC(C)S(=O)(=O)c1cnc(N2CCCC2)nc1N returned MgrA DNA FP -0.4.
COc1cc(-c2nc3ccccc3c(=O)[nH]2)cc(Cl)c1O was read as MgrA DNA FP 2.7 and S aureus helic -2.0.
For O=C(CCN(Cc1ccco1)S(=O)(=O)c1ccc(Cl)cc1)Nc1ccc(Cl)cc1 the results were MgrA DNA FP 1.0.
For Cc1ccc(S(C)(=O)=NS(=O)(=O)c2cccc3nsnc23)cc1 (stereo not drawn) the results were S aureus helic 17.0.
`O=C(Nc1ccccc1Br)c1ccccc1Oc1ccccc1` gave MgrA DNA FP -6.9 and S aureus helic 8.0.
For CCO/C=C(/C#N)c1nc(C)cs1 the results were S aureus helic -246.0.
O=c1[nH][nH]c(=S)n1Cc1ccco1 was read as S aureus helic -14.0.
Screening O=S(=O)(Cc1c(F)cccc1Cl)c1cccs1 returned MgrA DNA FP 0.7.
COc1ccc(CC(=O)Nc2c(C)nc3cc(C)ccn3c2=O)cc1 was read as S aureus helic 13.0.
For O=C(O)Cn1nnc(-c2ccncc2)n1 the results were MgrA DNA FP 3.7 and S aureus helic 21.0.
O=C(O)c1cccc(Sc2cccc(C(=O)O)c2)c1 was read as MgrA DNA FP 3.3.
Screening O=C(N1CCCc2ccccc21)N1c2ccccc2Sc2ccccc21 returned MgrA DNA FP -0.3 and S aureus helic 4.0.
Screening CCOC(=O)N1CCc2c(sc(NCc3cccnc3)c2C(=O)Nc2ccc(OC)cc2OC)C1 returned MgrA DNA FP 0.0 and S aureus helic -14.0.
`CCOC(=O)c1ccc(NS(=O)(=O)N2CCOCC2)cc1` gave S aureus helic 3.0.
For CCNS(=O)(=O)c1ccc(NC(=O)c2c(-c3ccccc3)noc2C)cc1 the results were MgrA DNA FP 6.1 and S aureus helic 5.0.
For Cc1cc(C(=O)Nc2cccc(COC(=O)c3cc(C)on3)c2)no1 the results were S aureus helic -15.0.
For Cn1nc(C(=O)OCC(=O)NC2CC2)c2ccccc2c1=O the results were S aureus helic -10.0.
Screening CCOC(=O)c1oc2ccccc2c1NC(=O)CC returned S aureus helic 4.0.
Screening CCn1c(SCC(N)=O)nc2ccccc2c1=O returned MgrA DNA FP 4.7 and S aureus helic 4.0.
For O=C(/C=C/c1cccc(Br)c1)N1CCc2ccccc21 the results were MgrA DNA FP -0.7 and S aureus helic -19.0.
CC1CCN(Cc2cn3c(-c4ccc(Br)cc4)nnc3s2)CC1 was read as S aureus helic -1.0.
Screening Cc1ccc(NC(=O)CC2C(=O)Nc3ccccc3N2C(C)C(=O)N2CCCCC2)c(C)c1 (stereo not drawn) returned S aureus helic 9.0.
For O=C(NCCO)c1ccc(CSc2nc3sc4c(c3c(=O)[nH]2)CCC4)cc1 the results were S aureus helic 8.0.
Screening O=C1c2ccccc2C2(c3ccccc3)N1CCN2S(=O)(=O)c1cccc(C(F)(F)F)c1 (stereo not drawn) returned MgrA DNA FP -2.9.
Screening CCOc1ccccc1C(=O)Nc1cccc(-c2ccc(N3CCOCC3)nn2)c1 returned S aureus helic 7.0.
O=C(Cn1cnc2scc(-c3ccc(Br)cc3)c2c1=O)N1CCNC1=O was read as S aureus helic -15.0.
`CC(C)(C)c1cc2nc(C(F)(F)F)cc(C#N)n2n1` gave MgrA DNA FP -2.1.
`CC(C)CN(CC(C)C)C(=O)CCN1C(=O)c2ccccc2C1=O` gave MgrA DNA FP -2.2 and S aureus helic 2.0.
For O=c1[nH]c2ccccc2n1CCCSc1ncnc2ccccc12 the results were S aureus helic -10.0.
CC1(C)N(O)C2=C(N=O)CCC(N=O)=C2N1O was read as MgrA DNA FP 0.2 and S aureus helic -7.0.
O=C(CN1CCN(Cc2ccc3c(c2)OCO3)CC1)N(c1ccccc1)C1CCS(=O)(=O)C1 (stereo not drawn) was read as S aureus helic -14.0.
`O=C(Nc1nnc(C(F)(F)F)s1)C1CC(=O)N(c2ccc(Cl)cc2)C1` (stereo not drawn) gave MgrA DNA FP 11.6 and S aureus helic -7.0.
`CC1(C)C2CC=C(CN3CCN(c4ccccc4)CC3)C1C2` (stereo not drawn) gave MgrA DNA FP -0.1 and S aureus helic 9.0.
For Cc1cccc(OCc2nnc(SCC(=O)N3c4ccccc4CCc4ccccc43)o2)c1 the results were MgrA DNA FP 0.2 and S aureus helic -7.0.
Screening CC(C(N)=O)N1c2cccc3cccc(c23)S1(=O)=O (stereo not drawn) returned MgrA DNA FP 7.7 and S aureus helic 7.0.
`CCCN1CCc2c(sc(NC(=S)NC(=O)c3ccccc3)c2C#N)C1` gave MgrA DNA FP 5.2 and S aureus helic -37.0.
For O=C(COc1ncnc2c1cnn2-c1ccccc1)N1CCc2ccccc21 the results were S aureus helic 18.0.
`CCOC(=O)C1=C(C)N=c2s/c(=C\c3ccc(C(=O)OC)cc3)c(=O)n2C1c1ccc(Cl)cc1` (stereo not drawn) gave MgrA DNA FP -1.2.
Screening c1ccc(C2C3CC4CC(C3)CC2C4)cc1 (stereo not drawn) returned MgrA DNA FP 1.9.
CCOC(=O)c1[nH]c(C)c(S(=O)(=O)NC2CCCCNC2=O)c1C (stereo not drawn) was read as S aureus helic -4.0.
`CCOC(=O)c1c[nH]c2c(C(=O)OC)cccc2c1=O` gave MgrA DNA FP -1.6 and S aureus helic 13.0.
`C/S(=N\S(=O)(=O)c1ccccc1)c1ccccc1` (stereo not drawn) gave MgrA DNA FP -2.2.
Screening CC1CCN(CN2C(=O)CCC2=O)CC1 returned MgrA DNA FP 0.7 and S aureus helic 3.0.
For CC12CCC(=O)N1C(C(=O)OCC(=O)N1CCc3ccccc31)CS2 (stereo not drawn) the results were S aureus helic 7.0.
`CCN=C1SC(CC(=O)Nc2cccc(C(=O)O)c2)C(=O)N1CC` (stereo not drawn) gave MgrA DNA FP 7.1 and S aureus helic 8.0.
Oc1ccc(-c2[nH]ncc2-c2cccc3cccnc23)c(O)c1 was read as MgrA DNA FP -0.6 and S aureus helic -11.0.
Screening COCCNC(=O)c1cc(-c2cccc(OC)c2)no1 returned S aureus helic 5.0.
For CCOc1ccc2nc(NC(=O)CSc3nnc(Cc4csc(C)n4)o3)sc2c1 the results were S aureus helic -33.0.
Screening Cc1ccc2nncc(N3CCN(c4ccccc4F)CC3)c2c1 returned S aureus helic 2.0.
`N#Cc1ccc(OCc2nnc(SCC(=O)c3ccccc3)n2-c2ccccc2)cc1` gave MgrA DNA FP 3.1 and S aureus helic 4.0.
N#C/C(=C/c1ccc(-c2cccc(C(F)(F)F)c2)o1)c1ccc(C#N)cc1 was read as MgrA DNA FP -3.2 and S aureus helic 6.0.
O=C(O)CCc1nc2c3c4c(sc3ncn2n1)CCCC4 was read as MgrA DNA FP 0.8 and S aureus helic 0.0.
`Cc1ccc(Cl)cc1NC(=O)Cn1cnc2c(cnn2C)c1=O` gave MgrA DNA FP -1.7 and S aureus helic 2.0.
CCn1c2c(c3cc(C)ccc31)CCCC2=O was read as S aureus helic 16.0.
For CC(CC(=O)N1CCOCC1)c1ccccc1 (stereo not drawn) the results were MgrA DNA FP 1.6 and S aureus helic -9.0.
`Cc1ccccc1-c1nc2cc(NC(=O)c3cccc(F)c3)ccc2o1` gave MgrA DNA FP 1.1 and S aureus helic 5.0.
`CCOC(=O)c1[nH]c2ccc(Br)cc2c1C` gave S aureus helic -2.0.
Clc1ccc(/C=N/N2CCCCC2)cc1 was read as MgrA DNA FP -1.6.
Screening NC(=O)c1cc2cc(Br)ccc2o1 returned S aureus helic -29.0.
`O=C(CC1SC(=NC2CC2)NC1=O)NCc1ccccc1` (stereo not drawn) gave S aureus helic -5.0.
O=C(Nc1nnc(-c2ccc3c(c2)OCCO3)o1)c1ccc(NS(=O)(=O)c2ccccc2)cc1 was read as S aureus helic 3.0.
CN(C)c1ccc(NC(=O)c2ccc(Cl)cc2)cc1C(=O)O was read as MgrA DNA FP -1.6.
CC12Nc3ccccc3C1(C)CCO2 (stereo not drawn) was read as MgrA DNA FP -2.0 and S aureus helic 8.0.
CCn1c(C(=O)O)c(CNC2CCCC2)c2ccc(C)cc21 was read as S aureus helic -97.0.
`OC(CN1CCN(C(c2ccccc2)c2ccccc2)CC1)Oc1cccc(C(F)(F)F)c1` (stereo not drawn) gave MgrA DNA FP -1.8.
`Cc1cc2ncn(CCC(=O)Nc3ccccc3F)c2cc1C` gave MgrA DNA FP 1.9 and S aureus helic 8.0.
For COc1ccc(S(=O)(=O)N=S(C)(=O)c2ccc(C)cc2)cc1 (stereo not drawn) the results were MgrA DNA FP -1.7.
`O=C(/C=C/c1ccc(Cl)cc1)N1CCN(c2ccccc2)CC1` gave MgrA DNA FP 0.4 and S aureus helic 22.0.
Screening O=C(CCN1C(=O)C2C3C=CC(C3)C2C1=O)NC1CCCCC1 (stereo not drawn) returned S aureus helic -8.0.

At a glance, part of the list above.
CCn1c2c(c3cc(C)ccc31)CCCC2=O was read as S aureus helic 16.0.
For CC(CC(=O)N1CCOCC1)c1ccccc1 (stereo not drawn) the results were MgrA DNA FP 1.6 and S aureus helic -9.0.
`Cc1ccccc1-c1nc2cc(NC(=O)c3cccc(F)c3)ccc2o1` gave MgrA DNA FP 1.1 and S aureus helic 5.0.
`CCOC(=O)c1[nH]c2ccc(Br)cc2c1C` gave S aureus helic -2.0.
Clc1ccc(/C=N/N2CCCCC2)cc1 was read as MgrA DNA FP -1.6.
Screening NC(=O)c1cc2cc(Br)ccc2o1 returned S aureus helic -29.0.
`O=C(CC1SC(=NC2CC2)NC1=O)NCc1ccccc1` (stereo not drawn) gave S aureus helic -5.0.
O=C(Nc1nnc(-c2ccc3c(c2)OCCO3)o1)c1ccc(NS(=O)(=O)c2ccccc2)cc1 was read as S aureus helic 3.0.
CN(C)c1ccc(NC(=O)c2ccc(Cl)cc2)cc1C(=O)O was read as MgrA DNA FP -1.6.
CC12Nc3ccccc3C1(C)CCO2 (stereo not drawn) was read as MgrA DNA FP -2.0 and S aureus helic 8.0.
CCn1c(C(=O)O)c(CNC2CCCC2)c2ccc(C)cc21 was read as S aureus helic -97.0.
`OC(CN1CCN(C(c2ccccc2)c2ccccc2)CC1)Oc1cccc(C(F)(F)F)c1` (stereo not drawn) gave MgrA DNA FP -1.8.
`Cc1cc2ncn(CCC(=O)Nc3ccccc3F)c2cc1C` gave MgrA DNA FP 1.9 and S aureus helic 8.0.
For COc1ccc(S(=O)(=O)N=S(C)(=O)c2ccc(C)cc2)cc1 (stereo not drawn) the results were MgrA DNA FP -1.7.
`O=C(/C=C/c1ccc(Cl)cc1)N1CCN(c2ccccc2)CC1` gave MgrA DNA FP 0.4 and S aureus helic 22.0.

Source: PubChem BioAssay (ICCB-Longwood Screening Facility, Harvard Medical School)

An excerpt; count on the stated rates, not on these rows.
